Source: PubChem BioAssay (National Center for Advancing Translational Sciences (NCATS))
Rango dissoc inh – inhibitors of RanGTP-induced Rango-importin beta complex dissociation; Potency, µM (top dose mostly 46.1 µM), without a hit: at the highest dose activity change, negative = inhibition; O95149+P62826; Biochemical FRET Rango-importin beta, RanGTP-induced dissociation; AID 540253; 340,000 compounds, 0.071% hits; active means falling FRET ratio curve, often poorly fitted, with flat reads before Ran was added; inconclusive means other falling curves, or compound fluorescence or quenching; inactive means flat or rising ratio curve;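 further: potency means the concentration at half of the fitted maximal effect; % of control where 0% means no effect; nearly all actives have a fitted effect of over 45% in size; -100% = wells without RanGTP and RCC1; the record marks most hits as doubtful in a second field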
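Rango (0.1 uM)–importin beta (0.25 uM) complex; RanGTP-RCC1 trigger; 45 min RT; CFP/YFP FRET read.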
Rango complex inh – prevents formation of the Rango-importin beta complex | Q14974 | Rango CFP/YFP FRET sensor + importin beta, 45 min | Potency, µM (series often up to 92.2 µM), for the others: at the highest dose inhibition of complex formation | 340,000 compounds, 0.031% hits | AID 540263; active = rising FRET ratio curve, often small or poorly fitted; inconclusive = mostly compound fluorescence or quenching in the first reads; inactive = flat curves in all reads;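 further: potency means the concentration at half of the fitted maximal effect; 0% = DMSO wells and 100% = buffer wells lacking importin beta; nearly all actives have a fitted effect of over 15% in size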
Target sequence (Q14974 whole entry, looked up): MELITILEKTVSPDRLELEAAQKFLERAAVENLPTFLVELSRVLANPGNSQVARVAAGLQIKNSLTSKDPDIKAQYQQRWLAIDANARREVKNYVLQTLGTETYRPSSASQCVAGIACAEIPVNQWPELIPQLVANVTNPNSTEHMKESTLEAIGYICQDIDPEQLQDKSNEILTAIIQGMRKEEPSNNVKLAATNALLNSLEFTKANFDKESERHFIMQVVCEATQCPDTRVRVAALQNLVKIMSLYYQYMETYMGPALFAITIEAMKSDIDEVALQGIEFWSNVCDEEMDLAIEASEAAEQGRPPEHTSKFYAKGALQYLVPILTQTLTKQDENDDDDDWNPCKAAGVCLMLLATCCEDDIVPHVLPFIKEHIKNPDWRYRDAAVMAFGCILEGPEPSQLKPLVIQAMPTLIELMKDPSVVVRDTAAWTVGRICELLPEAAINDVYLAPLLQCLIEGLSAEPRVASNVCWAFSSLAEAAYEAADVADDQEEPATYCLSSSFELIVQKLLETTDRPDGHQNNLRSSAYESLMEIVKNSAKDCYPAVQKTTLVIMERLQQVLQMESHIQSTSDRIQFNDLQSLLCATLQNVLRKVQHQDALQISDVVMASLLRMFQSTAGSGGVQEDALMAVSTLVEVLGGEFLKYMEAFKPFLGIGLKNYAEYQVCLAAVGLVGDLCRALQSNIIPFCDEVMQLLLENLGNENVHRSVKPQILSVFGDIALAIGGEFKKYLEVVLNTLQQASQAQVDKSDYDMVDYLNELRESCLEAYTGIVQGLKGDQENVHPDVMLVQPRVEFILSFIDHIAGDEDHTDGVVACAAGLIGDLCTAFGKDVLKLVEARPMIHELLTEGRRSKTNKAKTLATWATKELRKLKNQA
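Inhibition scored from the CFP 486 nm/YFP 530 nm FRET ratio 45 min after adding 0.125 microM importin beta to 50 nM Rango biosensor preincubated 5 min with compound (room temperature, PBS with DTT, Tween-20, BSA). No-importin wells as positive control.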
miR-21 FLuc – miR-21 reporter, rising signal. HeLa miR-21 FLuc reporter, luciferase, 48 h. AID 2288. 340,000 tested, under 10 active. Potency, µM (top dose mostly 38.3 µM), inactives show at the highest dose reporter change, positive = more light; active = well fitted rising curve with a large enough effect; inconclusive = small, poorly fitted or top-dose-only effect; inactive = no such curve, though single readings can be large or run the other way;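 further: % of control where 0% means no effect; miR-21 action dims this reporter so a rising signal means less miR-21 action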
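HeLa miR-21-FLuc reporter line, endogenous miR-21; 2000 cells/well in DMEM/10% FBS; compound titration up to ~40uM final, 48 h, 37 degree Celsius; luciferase detection reagent, 15 min lysis, CCD luminescence.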
GLA inh pH 4.5 – alpha-galactosidase A (human) inhibition, pH 4.5. purified enzyme, 4-MU-alpha-Gal fluorescence, pH 4.5. activity change, negative = inhibition, % at 105 µM. 230,000 tested, under 10 active. AID 1467; inconclusive = small, poorly fitted or top-dose-only inhibition, or a rising curve; inactive = flat fitted curve, though single readings scatter; no compound was filed as active;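 further: 0% = full activity with enzyme and -100% = basal without enzyme; dose as in the result columns while the protocol names 77 µM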
Active calls of the source: *; u = inconclusive; x = no result given.

SMILES	Rango dissoc inh	Rango complex inh	miR-21 FLuc	GLA inh pH 4.5
COc1ccc(-c2nc(SC(C)C(=O)Nc3ccc(NC(C)=O)cc3)n[nH]2)cc1 (stereo unspecified)	-11%	2.6%	x	x
C[C@H]1C[C@H]2[C@@H]3CCC4=CC(=O)C=C[C@]4(C)[C@@]3(Cl)[C@@H](O)C[C@]2(C)[C@@]1(O)C(=O)CO	u	-0.9%	-31%	6
CN(C(=O)C1CCN(S(=O)(=O)c2cccs2)CC1)c1ccccc1	-6%	1.7%	-4%	-1
CCN(CCNC(=O)C1CCN(S(=O)(=O)c2cccc3nsnc23)CC1)c1ccccc1	-2%	3.7%	15%	-4
CCC(=S)/C=C1\Sc2ccccc2N1CCCS(=O)(=O)O	-7%	0.1%	2%	-8
Cc1cc2ccccn2c1C(=O)c1cccc(F)c1	-1%	-2.1%	-5%	x
CSc1nnc2c3ccccc3n(CCc3ccccc3)c2n1	1%	1.4%	25%	-4
O=C1NC(=S)N/C1=C\c1cccc([N+](=O)[O-])c1	0%	-1.4%	-2%	-6
O=[N+]([O-])c1cccc(S(=O)(=O)NCCc2cccs2)c1	0%	1.3%	0%	x
CCn1c(SCC(=O)Nc2cccc(NC(C)=O)c2)nnc1-c1ccco1	15%	-0.3%	-6%	x
CCCc1nn2c(=O)cc(CSCC(=O)Nc3ccc(C)cc3)nc2s1	11%	-1.1%	-4%	x
CCN(CC)CCn1c(NCc2nc3ccccc3n2Cc2ccccc2)nc2ccccc21	7%	0.6%	6%	0
COc1ccc2nc(NC(=S)NC(=O)c3ccco3)sc2c1	-8%	2.5%	-55%	0
Cc1csc2ncnc(N3CCN(C(=O)Nc4ccc(OC(F)(F)F)cc4)CC3)c12	-11%	-0.3%	23%	-7
COc1ccc(-c2nnc(C3CCN(S(=O)(=O)c4ccccc4)CC3)o2)cc1	4%	0.2%	-2%	x
COc1ccccc1N/C(=N/c1nc(C)cc(C)n1)NC(C)=O	x	x	0%	-1
COc1ccccc1N(C(=O)c1ccco1)C(C(=O)NC1CCCC1)c1ccc(N2CCOCC2)cc1 (stereo unspecified)	-4%	0.5%	-2%	x
COc1ccc(C(=O)NCC(=O)OCCCOC(=O)CNC(=O)c2ccc(OC)c(OC)c2)cc1OC	0%	-1.9%	0%	x
C[C@]12c3[nH]c4ccc(Cl)cc4c3CCN1C(=O)[C@@H](CC(=O)NCCCn1ccnc1)C[C@@H]2C(=O)N1CCCCC1	2%	3.9%	x	x
O=C(N[C@@H](Cc1ccccc1)C(=O)NC1CC1)c1ccc(Cl)cc1	1%	-0.9%	-12%	x
CN1CCN(S(=O)(=O)c2ccc(-c3ccccc3)cc2)CC1	1%	-0.7%	-11%	-1
CCCN(CC(=O)Nc1ccccc1C)C(=O)c1cccc(S(=O)(=O)N2CCc3ccccc3C2)c1	-14%	0.5%	22%	x
Cc1cccc(N(C)C(=O)CN(C)S(=O)(=O)c2ccc3c(c2)c(=O)n(C)c(=O)n3C)c1	0%	-1.7%	-3%	x
CCCCC(=O)N1CCCC(c2nc(-c3cccc(OC)c3)no2)C1 (stereo unspecified)	0%	4.6%	-47%	1
Cc1cccc(-c2nc(S(=O)(=O)c3ccc(F)cc3)c(NCCCN3CCOCC3)o2)c1	14%	0.6%	0%	x
CCCCOc1ccc(C(=O)NN2C(=O)NC3(CCCCC3)C2=O)cc1OC	1%	0.1%	x	x
COC(=O)N1CC(C)N(C(=O)OC)CC1C (stereo unspecified)	0%	1.1%	-2%	5
CCOC(=O)/C(=N\Nc1ccc(C(C)=O)cc1)c1csc(Nc2ccccc2)n1	u	u	9%	5
CCCSc1nnc(Sc2nnnn2-c2ccccc2)s1	17%	u	26%	-5
O=C(OC1CCCCC1=O)c1ccc(F)c(S(=O)(=O)N2CCOCC2)c1 (stereo unspecified)	9%	5.7%	x	x
Fc1ccc(N2CCN(Cc3cnc(Cl)s3)CC2)cc1	-15%	-2.2%	-11%	-12
CCn1nnc(NC(=O)c2ccc([N+](=O)[O-])o2)n1	-4%	-0.8%	17%	-11
Cc1ccc(NC(=O)N2CCCC2C(=O)Nc2ccc3c(c2)OCO3)cc1 (stereo unspecified)	-2%	0.4%	-10%	x
O=C/C(=C\Nc1ccc(S(=O)(=O)CCO)cc1)c1nc2cc(Cl)ccc2o1	u	u	-3%	3
Cc1nc(SCC(=O)NCC2CCCO2)c2oc3ccccc3c2n1 (stereo unspecified)	6%	1.8%	-7%	7
O=C(Nn1cnnc1)c1cc2cc(Br)ccc2oc1=O	2%	-0.1%	-4%	-14
Cc1ccc(N(C)S(=O)(=O)c2cccc(C(=O)NNC(=O)c3ccncc3)c2)cc1	-5%	-1.6%	x	x
Cc1ccc(NS(=O)(=O)c2cc(N)ccc2Cl)c(C)c1	12%	-2.2%	3%	0
O=C(COc1ccccc1[N+](=O)[O-])N/N=C/C=C/c1ccco1	-3%	-0.6%	-32%	2
O=C(NCCC1=CCCCC1)C1CCN(S(=O)(=O)c2cccs2)CC1	-2%	-6.8%	-14%	3
N=C1C(=O)OCC1c1ccccc1NC(=O)c1ccccc1 (stereo unspecified)	-7%	-2.1%	-1%	-8
COc1cc(NC(=O)Nc2ccc(C)cc2)cc([N+](=O)[O-])c1	2%	-4.3%	0%	4
NC(=S)Nc1ccc(Oc2ccc(NC(N)=S)cc2)cc1	3%	4.4%	20%	3
COc1ccccc1NS(=O)(=O)c1cccc(C(=O)N/N=C(/C)c2ccc(-n3ccnc3)cc2)c1	u	u	x	x
COc1ccc(-n2cc(CN(C)CCO)c(-c3cccc(F)c3)n2)cc1	6%	-0.2%	-72%	6
O=C(Nc1ncc([N+](=O)[O-])s1)C1CC(=O)N(c2ccc(F)cc2)C1 (stereo unspecified)	-12%	1.1%	-44%	x
Cc1cc(C)c2[nH]c(=O)c(C(c3nnnn3C(C)(C)C)N(Cc3ccco3)CC3CCCO3)cc2c1 (stereo unspecified)	5%	-2.1%	2%	3
CCOC(=O)C1=C(CS(=O)(=O)c2ccc(C)cc2)NC(=O)NC1c1cc(OC)c(O)c(OC)c1 (stereo unspecified)	6%	-0.2%	0%	x
CC(=O)N1CCN(c2ccc(NCc3ccc(-c4ccc(Br)cc4)o3)cc2)CC1	u	-1.4%	x	x
Cc1nonc1OCCNc1ccc([N+](=O)[O-])cc1	-22%	5.9%	-13%	-7

Other entries follow:
SMILES	Rango dissoc inh	Rango complex inh	miR-21 FLuc	GLA inh pH 4.5
Cc1c(CCOC(=O)c2cc([N+](=O)[O-])cc([N+](=O)[O-])c2)sc[n+]1CC(=O)c1ccccc1	u	-1.7%	-14%	-3
Cn1ncc(Cl)c1C(=O)NCc1ccc(Cl)cc1	-4%	-0.2%	-1%	0
CCCn1c(-c2ccccc2)cc(SC)c(C#N)c1=O	1%	2.9%	0%	3
CC(NC(=O)c1cccnc1)C(c1cccs1)N1CCOCC1 (stereo unspecified)	3%	0.1%	-11%	-2
COc1ccc2oc(C(=O)OC(C)C(=O)NCc3ccccc3)c(C)c2c1 (stereo unspecified)	-12%	u	x	x
CN(Cc1nc2ccc(F)cc2[nH]1)C(=O)C1CCC(=O)N(C2CC2)C1 (stereo unspecified)	-4%	-0.4%	-2%	x
CC(C)c1ccc(NC(=O)C2CCCCN2S(=O)(=O)c2ccccc2)cc1 (stereo unspecified)	0%	-1.7%	x	x
COC1CCN(Cc2cn(Cc3ccccc3)nc2-c2cc3ccccc3o2)CC1	1%	-0.1%	14%	3
Cc1nn(CC(=O)Nc2c(F)cc(F)cc2Br)c(=O)c2cccn12	18%	0.4%	-2%	x
COc1cc(Cl)c(C)cc1NC(=O)COC(=O)c1cc(SC)ccc1Cl	8%	-0.6%	-1%	3
Cc1cc(C(=O)N/N=C(\CCC(=O)O)c2cccs2)c2ccccc2n1	1%	-0.4%	22%	-4
Cc1cc(=O)n2[nH]c(-c3ccc(Cl)cc3)cc2n1	28%	0.0%	-49%	-1
COc1ccc(NC(=S)Nc2cccnc2)c(OC)c1	-27%	-0.7%	-16%	2
CN(C)S(=O)(=O)c1ccc2c(c1)/C(=C/c1cc3c([nH]1)CCCC3)C(=O)N2	u	u	x	-7
Cc1ncc([N+](=O)[O-])n1CCN1C(=O)c2ccccc2C1=O	-4%	-0.1%	0%	x
CN(CCO)c1cc(N(C)CCO)c([N+](=O)[O-])cc1[N+](=O)[O-]	-1%	0.1%	1%	-7
CCC1(c2ccccc2)NC(=O)N(CC(=O)Nc2cccc(S(=O)(=O)N3CCCCC3)c2)C1=O (stereo unspecified)	-18%	-3.2%	x	x
NC(=O)[C@H]1CC2(CC(c3cccc(NC(=O)CC(c4ccccc4)c4ccccc4)c3)=NO2)CN1C(=O)c1ccccc1C(=O)c1ccccc1 (stereo partly specified)	-4%	-0.2%	u	-5
Cc1[nH]c2ccc(C(=O)N3CCN(C)CC3)cc2c1C	32%	u	-36%	x
CS(=O)(=O)Nc1ccc(C(=O)Nc2cccc([N+](=O)[O-])c2)cc1	0%	u	-6%	7
COc1ccc(-c2cc(C(F)(F)F)n3ncc(C(=O)N4CCCCC4c4cccnc4)c3n2)cc1 (stereo unspecified)	-15%	u	-3%	23
OCC1(Cc2cccc(Cl)c2)CCCN(Cc2sc(N3CCCC3)nc2Cl)C1 (stereo unspecified)	8%	-0.1%	1%	-1
Cc1ccc(S(=O)(=O)NCC2CCCO2)cc1 (stereo unspecified)	-4%	-4.2%	2%	x
CC(=O)Nc1cccc(OCC(=O)NS(=O)(=O)c2ccc(Cl)cc2)c1	13%	0.1%	-5%	-24
N#Cc1ccc(C(=O)NNC(=O)c2cccc(S(=O)(=O)N3CCOCC3)c2)cc1	-1%	1.8%	x	x
O=C(Cn1c(/C=C/c2ccccc2)nc2ccccc21)Nc1ccc(F)cc1	8%	1.0%	-76%	3
Cc1ccc(S(=O)(=O)NCc2ccco2)cc1C(N)=O	1%	2.3%	2%	1
Cc1ccc(NC2(C#N)C(=O)Nc3ccccc32)cc1 (stereo unspecified)	-5%	-1.0%	-2%	-6
COc1ccc(C(=O)CN2CCN(c3ccc(Cl)cc3)CC2)cc1OC	-1%	-0.1%	0%	x
CC(C)C(=O)Nc1nc2ccc(S(C)(=O)=O)cc2s1	25%	7.2%	0%	5
O=S(=O)(Nc1ccc(-n2cnnn2)cc1)c1cccc(F)c1	1%	1.7%	x	x
CCc1cccc(OCCCCNCCO)c1	21%	3.2%	-4%	2

The list is partial; the hit share may differ from the screen's.
